Assay outcomes deposited in PubChem by several laboratories.
RanGTP-Impb inh – inhibitors of RanGTP-importin-beta interaction, primary screen, biochemical, FRET, CFP-Ran, YFP-importin-beta, homogeneous | cell-free CFP-Ran/YFP-importin-beta FRET ratio | inhibition, % (no concentration beside the values) | 1.1% of 300,000 active | AID 2216;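 active means most replicates above 15%; inconclusive means exactly half above 15%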;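 further: 0% = DMSO wells and 100% = Ran loaded with GDP instead of GTP; wells of about 40 µL received 100 nL stock; the first replicate is given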
Calb FLC – C. albicans growth modulation with fluconazole | growth inhibition, % (no concentration beside the values) | 0.57% of 300,000 active | AID 1979 | C. albicans CaCi-2 (fluconazole-resistant clinical isolate) + fluconazole, Alamar Blue growth, 48 h;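 active means most replicates above 75%; inconclusive means exactly half above 75%; inactive means most below 75%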;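 further: all wells also contain fluconazole at 8 µg/ml as a sub-toxic cotreatment; 0% = median of DMSO wells and 100% = median of geldanamycin control wells; wells of about 8 µL received 7.5 nL stock; the first replicate is given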
Beta apoptosis – blocks beta cell apoptosis; INS-1E cytokine-induced death, ATP luminescence, 48 h; percent of positive-control rescue, neutral wells zero; AID 435005; 0.8% of 300,000 active; protection from apoptosis, % (concentration not given with the values);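 active means all replicates at 75% or more, or half of them and the mean; inconclusive means half reach 75% but not the mean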;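 further: 0% = cytokine-treated negative control wells and 100% = positive control rescue; higher means more ATP so stronger rescue from cytokine killing; wells of about 40 µL received 100 nL stock; the first replicate is given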
Bfl-1 A1 inh – inhibitors of the anti-apoptotic protein A1, read as caspase activation | MEF A1-2A-BIM cells, Caspase-Glo 3/7 luminescence, 3 h; percent of clofoctol response, vehicle zero | caspase activation, % (concentration not given with the values) | 0.066% of 330,000 active;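 active means over half of replicate activation scores above 10%, or exactly half above 10 with the replicate mean above 10; inconclusive means replicate mean below 10 yet half the replicates above 10; inactive means over half of replicates below 10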;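 further: wells of about 30 µL received 50 nL stock; many hits fall short of the cut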
B2AR ag – agonists of human beta-2 adrenergic receptor inducing internalization. P07550. Am2.2-beta2AR cells, FAP receptor internalization, flow cytometry; reference of the scale not given here. response, % (concentration not given with the values). 0.43% of 340,000 active. AID 504454;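 active means response above a set limit, near 3 SD of response in nonfluorescent compounds, cut at about 42% in these data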;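 further: stock transfer was 100 nL into about 11 µL; a reference agonist was the positive control; negative values mostly stem from fluorescent compounds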
LANA-H2B inh – blocks KSHV LANA binding to histone H2A/H2B. Q9QR71. cell-free LANA-H2A/H2B peptide, fluorescence polarization. inhibition, % (concentration not given with the values). 0.6% of 320,000 active; in the data active means inhibition mostly above about 10%, no sharp cut-off; inactive means mostly below about 6.7%;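 further: stock transfer was 7.5 nL into about 10 µL; 0% = median of vehicle wells and 100% = median of positive control wells; one replicate is shown; the record names a cut of 25% in any replicate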
Target sequence (Q9QR71 whole entry, looked up): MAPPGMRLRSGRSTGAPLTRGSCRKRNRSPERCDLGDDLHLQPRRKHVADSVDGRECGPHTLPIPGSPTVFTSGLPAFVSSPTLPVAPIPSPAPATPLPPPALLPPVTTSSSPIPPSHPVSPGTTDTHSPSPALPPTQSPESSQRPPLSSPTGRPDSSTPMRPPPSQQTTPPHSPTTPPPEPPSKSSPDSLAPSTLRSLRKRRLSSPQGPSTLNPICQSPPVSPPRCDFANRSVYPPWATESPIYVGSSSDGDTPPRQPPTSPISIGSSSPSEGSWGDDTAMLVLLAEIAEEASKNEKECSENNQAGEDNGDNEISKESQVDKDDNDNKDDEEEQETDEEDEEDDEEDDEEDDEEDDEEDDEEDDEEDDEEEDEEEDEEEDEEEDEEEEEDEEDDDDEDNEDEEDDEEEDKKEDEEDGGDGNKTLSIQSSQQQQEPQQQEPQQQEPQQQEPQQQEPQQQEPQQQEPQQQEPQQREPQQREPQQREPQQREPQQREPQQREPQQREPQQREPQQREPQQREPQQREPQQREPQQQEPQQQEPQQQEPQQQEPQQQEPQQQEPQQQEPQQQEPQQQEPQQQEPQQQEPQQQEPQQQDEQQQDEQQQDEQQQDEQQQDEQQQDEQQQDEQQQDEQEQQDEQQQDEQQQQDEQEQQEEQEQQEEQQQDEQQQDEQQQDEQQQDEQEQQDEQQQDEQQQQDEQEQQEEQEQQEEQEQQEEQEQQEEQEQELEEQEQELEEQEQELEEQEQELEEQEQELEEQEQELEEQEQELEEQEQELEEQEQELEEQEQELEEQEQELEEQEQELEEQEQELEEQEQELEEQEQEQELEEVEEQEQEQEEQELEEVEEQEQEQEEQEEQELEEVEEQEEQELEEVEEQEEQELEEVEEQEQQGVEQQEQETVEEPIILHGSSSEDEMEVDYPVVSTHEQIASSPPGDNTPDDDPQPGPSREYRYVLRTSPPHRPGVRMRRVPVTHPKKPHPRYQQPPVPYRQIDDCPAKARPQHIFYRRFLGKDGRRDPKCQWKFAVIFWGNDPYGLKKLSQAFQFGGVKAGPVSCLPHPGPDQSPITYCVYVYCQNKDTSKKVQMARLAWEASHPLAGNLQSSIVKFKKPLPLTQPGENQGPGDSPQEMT
UCH37 inh – human UCH37 deubiquitinating enzyme inhibition; Q9Y5K5; purified proteasome/UCH37, Ub-AMC cleavage fluorescence; inhibition, % (no concentration beside the values); 0.33% of 330,000 active;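 active means mean of two replicates above 20%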;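 further: 0% = compound-free wells with enzyme and 100% = wells lacking proteasome; stock transfer was 100 nL into about 20 µL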
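Schedule: 30 min plus 25 min, room temperature / Material: human UCH37 within purified proteasomes / Technique: AMC fluorescence intensity at 355/460 nm / Buffer or medium: pH 7.4 Tris-HCl (50 mM) with ovalbumin, ATP-MgCl2, DTT / Controls: wells without proteasome as full block, compound-free enzyme plus substrate as uninhibited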
T cruzi repl – blocks replication of Trypanosoma cruzi; T. cruzi beta-gal in NIH3T3, luminescence, 90 h; inhibition, % (test concentration not listed); 1.4% of 300,000 active; AID 1885;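 active means mean inhibition across valid replicates above about 55%, limit read from the data; inconclusive means mean below that limit but half or more replicates reach it; inactive means mean below it, under half of replicates reach it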;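 further: signal also drops with host cell toxicity which is not excluded here; 0% = plate median of DMSO wells and 100% = zero luminescence signal; higher percent means less beta-gal luminescence so fewer parasites; stock transfer was 50 nL into about 50 µL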
Active calls of the source: *; u = inconclusive; x = no result given.

SMILES	RanGTP-Impb inh	Calb FLC	Beta apoptosis	Bfl-1 A1 inh	B2AR ag	LANA-H2B inh	UCH37 inh	T cruzi repl
CCOc1ccccc1CN1CCN(S(C)(=O)=O)CC1	0.3	-4	-3	-0.1	12	3.5	3.5	-7
O=C(Nc1ncccn1)c1cc([N+](=O)[O-])cc([N+](=O)[O-])c1	2.4	-15	-11	0.5	4	1.4	2.3	u
Nc1nc(OCC(F)(F)F)cc(Oc2ccccc2F)n1	u	-2	1	-0.3	4	-0.8	7.9	5
COc1ccc(OC)c(C2=NOC(C(=O)NCc3ccco3)C2)c1 (configuration not stated)	3.8	-2	-9	0.4	-7	-0.3	-4.5	4
COc1ccc(NC(=S)NC(=O)c2csnn2)cc1	1.8	-3	-4	0.1	-6	-2.3	0.4	13
COc1ccc(NC(=O)N(Cc2ccc(C)cc2)Cc2cccnc2)c(OC)c1	2.2	-3	x	x	-4	x	4.2	25
O=C(COC(=O)c1cccc(S(=O)(=O)N2CCOCC2)c1)NCc1ccc2c(c1)OCO2	x	x	0	1.1	3	1.8	2.3	x
CCCc1cc(Nc2c(C)n(C)n(-c3ccccc3)c2=O)n2c(nc3ccccc32)c1C#N	107*	u	-2	-0.1	-22	-3.1	-7.9	37
CCC(CC)NC(=O)c1oc2ccccc2c1COc1ccccc1	-1.3	-5	-1	0.4	2	3.3	4.1	15
Cc1ccc(Cl)cc1N(C)C(=O)Cn1ncc2c([nH]c3ccccc32)c1=O	1.6	1	6	-0.5	8	-2.7	-1.7	9
CCOc1cc(C(=O)Nc2ccc(S(=O)(=O)N3CCOCC3)cc2)cc(OCC)c1OCC	2.9	0	-6	0.0	1	3.4	-2.9	-7
CCOC(=O)CNc1nc(Oc2ccc(=O)n(C)n2)nc(N(CC)CC)n1	0.2	1	0	0.5	10	-3.1	1.2	-14
C[C@H](NC(=O)c1ccccc1)C(=O)N1CCC2(CC1)NCCc1[nH]cnc12	1.9	-3	-1	0.3	-4	2.5	0.4	-18
O=C(CCN1CCC(c2ccccc2)C1)c1cccs1 (configuration not stated)	u	-5	1	0.2	27	0.4	1.7	1
Cc1cc(C(=O)N/N=C2\CC(=O)CC(C)(C)C2)n[nH]1	16*	5	-5	-0.7	-10	-3.2	x	5
CCN(CC)C(c1ccc(C)cc1)c1nnnn1C1CCCCC1 (configuration not stated)	1.5	-5	14	1.1	9	-4.5	4.2	11
CN(C)S(=O)(=O)c1cccc(NC(=O)c2ccc(COc3ccccc3)cc2)c1	-0.3	x	1	-1.9	16	-0.5	2.7	-9
CC(=NCCc1ccccc1)C1=C(O)CCC1=O	-0.5	-7	4	0.1	6	0.8	0.8	-7
CCOC(=O)c1c(NC(=O)C2CCCO2)sc(C(N)=O)c1C (configuration not stated)	-0.3	-20	-8	-0.2	9	-1.6	2.2	-20
COc1cc(NC(=O)CN2C(=O)NC(c3ccccc3)(c3ccccc3)C2=O)c(C)cc1[N+](=O)[O-]	3.4	30	1	-0.1	10	0.0	2.2	11
Cc1ccc(-c2csc(NC(=O)C3=COCCO3)n2)cc1	1.0	-4	0	-3.8	6	-0.4	1.9	-6
Cc1ccc(N=Nc2ccc(N)cc2C)c(S(N)(=O)=O)c1	-2.8	10	1	-0.6	-3	9.7	4.1	-2
CCCSc1cc(N)cc([N+](=O)[O-])c1	1.3	97*	-1	0.3	-1	-3.6	1.6	-4
COc1ccccc1NC(=O)Cn1c(=O)oc2ccccc21	-0.2	2	-2	-0.3	3	9.6	2.1	2
CC(=O)Nc1cccc(C(=O)NC2CCCc3c2cnn3-c2cc(C)cc(C)c2)c1 (configuration not stated)	2.3	6	-1	-0.4	4	1.7	-4.1	7

Continuation:
SMILES	RanGTP-Impb inh	Calb FLC	Beta apoptosis	Bfl-1 A1 inh	B2AR ag	LANA-H2B inh	UCH37 inh	T cruzi repl
CC1=CC(C)(C)N2C(=O)C3(NCCc4c3[nH]c3ccccc43)c3cccc1c32 (configuration not stated)	-2.7	28	-9	0.1	-13	4.3	1.7	-9
COc1ccc(NS(=O)(=O)c2ccc(C)c(NC(=O)NC3CCCCC3)c2)cc1	u	23	-5	0.2	8	1.1	5.5	3
CC(C)CCc1c(O)nc(SCC(=O)N2CCCCCC2)[nH]c1=O	-4.5	-1	-11	u	-8	3.1	x	-11
CCC(NC(=O)c1ccccc1NC(=O)c1ccccc1)C(=O)O (configuration not stated)	4.4	-5	5	-0.7	4	0.8	4.5	0
CC(C)(C)c1cc(NS(=O)(=O)c2ccc3c(c2)OCCO3)on1	5.2	u	1	0.3	2	-3.6	2.0	-9
O=C(OCc1cc(=O)n2c(n1)sc1ccccc12)c1cccc(O)c1	1.2	-3	-11	0.5	-10	2.2	-1.8	-29
CCn1ccc(C(=O)NC2=C(C#N)CCC2)n1	0.1	-2	x	-0.4	-3	0.9	0.1	-13
COc1ccc2c(CCNC(=O)CN3C(=O)c4ccccc4C3=O)c[nH]c2c1	-0.4	1	-11	-0.3	14	-2.4	-0.6	-11
CCOC(=O)c1c(N)sc(C(=O)OCCOC)c1C	-2.1	u	2	-0.1	-3	4.8	5.0	-7
CC(=O)c1cccc(NC(=O)N2C3CCC2CC(O)(c2cccnc2)C3)c1 (configuration not stated)	3.7	3	x	-0.5	10	-3.1	1.4	6
CC(C)N(C)Cc1nnnn1CC(=O)N(C)Cc1cccc(Cl)c1	2.9	4	-2	0.2	-2	9.7	3.7	-16
CC1(C)Cc2c(C#N)c(SCc3ccccc3)nc(N3CCOCC3)c2CO1	1.2	34	19	-0.2	9	-2.6	-0.8	37
Cc1[nH]c2ccccc2c1C1C(c2ccccc2)=NN=C(C(C)C)N1O (configuration not stated)	0.5	-28	1	-0.7	7	-2.3	4.2	4
O=C(O)c1cccc(S(=O)(=O)N2CCc3ccccc3C2)c1	1.9	3	-2	0.5	-1	-0.1	2.6	-13
COc1ccccc1CN1CC(C(=O)NCCN2CCNC2=O)CCC1=O (configuration not stated)	3.2	11	-5	3.2	5	-5.4	2.0	-5
CCCN(Cc1nnc(-c2ccccc2Cl)o1)C(=O)c1cc2ccccc2o1	2.7	-3	1	0.9	-4	-5.1	0.5	8
CCn1c(=O)c(C(=O)NCCCO)c(O)c2ccccc21	2.4	-14	-11	1.1	18	-2.3	2.3	0
Cc1cc(Cl)c(S(=O)(=O)Nc2cccc(O)c2)cc1OCC(N)=O	0.1	5	-3	0.2	5	0.6	2.1	-10
O=C(Nc1ccc([N+](=O)[O-])cc1Br)c1cc2ccccc2nc1Cl	0.5	-4	3	1.8	1	1.2	-1.8	-5
Cc1cc(C(=O)Nc2ccc(N3CCOCC3)c3nonc23)ccc1[N+](=O)[O-]	-1.6	5	9	0.0	-3	1.3	7.5	9
COc1ccc(-c2cc(C(=O)NC3CCCC3)c3ccccc3n2)cc1OC	-1.2	5	x	0.0	1	-1.4	-216	-4
COc1cc(NC(=O)Cn2nc(C(F)(F)F)c(Br)c2C)cc([N+](=O)[O-])c1	-2.4	-17	11	-0.3	0	-2.8	3.3	u
CCOC(=O)N1CCC(NC(=O)c2cc(S(=O)(=O)NCCc3ccccc3)ccc2F)CC1	-2.7	-2	x	0.2	-3	1.7	0.7	-3
CCOC(=O)c1cnc2c(OC)cccc2c1N1CCN(c2ccccc2OC)CC1	5.6	7	10	-0.1	-1	0.7	x	9
CN1CCc2c(sc3nc(NN)n(Cc4ccccc4)c(=O)c23)C1	6.1	0	2	-1.4	-4	-10	x	39

Remaining list, next part
SMILES	RanGTP-Impb inh	Calb FLC	Beta apoptosis	Bfl-1 A1 inh	B2AR ag	LANA-H2B inh	UCH37 inh	T cruzi repl
CCc1ccc2c(c1)C(c1ccc(N3CCOCC3)cc1)=NNC(c1ccncc1)=N2	-0.8	-7	10	0.3	3	-4.1	3.9	59*
Cc1cc(N/N=C/c2ccccc2)nc(N)n1	0.3	3	-7	-2.4	-22	3.6	x	0
O=C(CNC(=S)N(Cc1ccccc1)Cc1ccccc1F)NCCc1ccccc1	-0.6	-4	1	1.2	2	-2.5	5.5	27
CCOC(=O)c1c(C)[nH]c(-c2csc(C)n2)c1C	2.2	40	-8	-0.1	4	5.4	-0.6	11
COc1ccc(S(=O)(=O)N2CCOCC2)cc1NC(=O)c1ccccc1-c1ccc(C(F)(F)F)cc1	-2.6	-19	x	0.5	-14	-0.3	-2.7	23
COc1ccc(NC(=S)NCC2CCN(c3ccc(OC)cc3)C2)cc1 (configuration not stated)	5.7	-6	7	-1.2	6	2.0	3.7	6
O=C(Cc1ccccc1)Nc1nnc(-c2ccco2)s1	x	x	-4	0.1	-10	-5.2	-1.9	x
Cc1ccc(C)c(N2CCN(C(=O)c3nn(C)c4c3CS(=O)(=O)c3ccccc3-4)CC2)c1	-0.7	13	31	-0.5	5	-5.3	1.1	5
CN(C)/C=N/c1ncn(-c2ncc(C(F)(F)F)cc2Cl)n1	6.5	-5	-2	-0.7	-2	4.6	x	-25
Nc1nc2ccc(Cc3ccncc3)cc2s1	-0.2	-8	x	-0.9	-11	2.5	0.9	-9
CC1(C)CC(O)CC(C)(C)N1CC(O)COCc1ccccc1 (configuration not stated)	2.0	-3	-6	1.4	-1	-2.9	3.4	-20
O=C(CSc1nc2ccccc2c(=O)n1Cc1ccco1)N1CCN(c2ccccc2)CC1	-3.4	19	-1	1.0	-7	0.5	-0.2	26
CCS(=O)c1ccccc1C(=O)OCC(=O)Nc1cccc(S(=O)(=O)N2CCCCC2)c1 (configuration not stated)	x	x	9	-0.2	4	-1.9	0.0	x
O=C(CCc1ccccc1)Nc1cccnc1Cl	u	-1	-1	-2.2	-7	-1.6	-0.7	-2
O=C(COC(=O)c1ccc(Cl)cc1[N+](=O)[O-])NCc1ccco1	x	x	-3	-0.9	-6	-1.0	0.7	x
Cn1c(-c2ccc(Cl)cc2)cnc1NCc1cc2c(cc1[N+](=O)[O-])OCO2	0.5	4	6	0.9	-1	-0.3	x	45
Cc1ccccc1OCC(=O)Nc1ccc(N2CCOCC2)cc1N1CCOCC1	x	x	2	0.2	-9	-5.0	-2.1	x
COc1ccc(CC(=O)OCC(=O)Nc2ccc3c(c2)OCCO3)cc1OC	0.7	u	2	0.0	-5	0.1	2.9	-21
O=C(O)c1ccc(N2C(=O)CC(N3CCN(c4cccc(C(F)(F)F)c4)CC3)C2=O)cc1 (configuration not stated)	-1.3	5	-7	2.2	1	-0.6	5.1	-10
O=C(OCc1nc2ccsc2c(=O)[nH]1)c1ccco1	1.2	9	3	-1.1	10	0.6	1.1	2
CCN(CC)C(=O)CSc1nc2ccccc2c(=O)n1-c1cccc(OC)c1	-1.4	-10	-3	-0.9	-11	0.2	2.5	18
CCOC(=O)Cc1nnc(Nc2ccc(C(=O)NC)cc2)c2ccccc12	-1.0	-5	3	-0.1	-6	4.6	x	1
O=C(NCc1ccco1)c1cc2n(n1)C(C(F)(F)F)CC(c1ccc(Cl)c(Cl)c1)N2 (configuration not stated)	-6.4	u	0	-0.1	18	0.3	1.5	55*
C/C(CC(=O)Nc1ccccn1)=N\NC(=O)c1cnccn1	6.4	-11	2	0.6	-4	-4.2	x	-8
